TRPML1 inh = blocks the human TRPML1 channel | activity change, negative = inhibition, % (test concentration not listed) | 390,000 tested, 0.02% active | TRPML1-inducible cells, Ca2+ dye fluorescence, FDSS; active compounds read low; inhibition of EC80 agonist-evoked calcium signal | AID 624415 | Q9GZU1; in the data active means activity change below about -50%; inconclusive means about -30% to -50%; inactive means above about -30%;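 further: stimulus is agonist 54-4 at its EC80 concentration; on the % scale 0 is the no-effect control and ±100 the full control effect; compound concentration not given in the record; the text of the record puts the active cut at -80%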
Target sequence (Q9GZU1 whole entry, looked up): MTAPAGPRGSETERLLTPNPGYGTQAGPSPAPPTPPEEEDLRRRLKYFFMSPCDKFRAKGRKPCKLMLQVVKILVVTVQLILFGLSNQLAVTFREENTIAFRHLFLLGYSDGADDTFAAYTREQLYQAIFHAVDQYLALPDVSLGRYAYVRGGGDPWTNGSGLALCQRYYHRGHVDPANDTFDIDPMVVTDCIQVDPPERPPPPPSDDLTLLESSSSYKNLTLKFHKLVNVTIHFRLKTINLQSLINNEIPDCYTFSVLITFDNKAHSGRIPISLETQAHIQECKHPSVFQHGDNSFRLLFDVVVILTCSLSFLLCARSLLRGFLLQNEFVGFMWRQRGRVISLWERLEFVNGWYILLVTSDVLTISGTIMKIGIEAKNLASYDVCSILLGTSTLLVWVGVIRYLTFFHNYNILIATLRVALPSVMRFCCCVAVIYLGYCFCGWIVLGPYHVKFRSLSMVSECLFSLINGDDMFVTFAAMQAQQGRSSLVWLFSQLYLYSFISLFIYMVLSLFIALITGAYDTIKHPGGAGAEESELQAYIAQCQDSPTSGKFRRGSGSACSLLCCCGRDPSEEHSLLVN
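Calcium fluorescence in TRPML1-DL cells induced overnight with Tet: a 110 s read after compound pin addition, then a 110 s antagonist read after challenge with 54-4 at 4 uM final (EC80).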
gsp antagonist = gsp mutant antagonism; gsp-mutant cells, cAMP HTRF, 30 min; control for the full effect not named in the record; Potency, µM (highest dose often 76.9 µM), without a hit: at the highest dose activity change, negative = inhibition, usual class: inhibitors; 340,000 tested, 0.4% active; active = falling curve of any shape with a large fitted effect; inconclusive = falling curve, mostly with a smaller effect; inactive = flat or rising curve; cell line not stated here;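 further: intracellular cAMP measured with PDE inhibitor Ro 20-1724 present during compound exposure; potency means the concentration at half of the fitted maximal effect; on the % scale 0 is the no-effect control and ±100 the full control effect; nearly all actives have a fitted effect of over 65% in size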
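G418-selected cells were plated in DMEM/10% FBS for 16-24 h at 37C, then treated with compounds plus the PDE inhibitor […] (300 uM solution added) for 30 min at 37C. Intracellular cAMP was measured by HTRF after 30 min lysis at room temperature.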
ClpP mod = qHTS Assay for Activators of ClpP; purified B. subtilis ClpP, FRET peptide cleavage, 20 min; Potency, µM (top dose mostly 57.5 µM), inactives show at the top dose activity change, negative = active; 340,000 tested, 1.9% active; AID 651965, 2013; active = well fitted falling curve with a large enough effect; inconclusive = small, poorly fitted or top-dose-only effect; inactive = no such curve, though single readings can be large or run the other way; further: potency means the concentration at half of the fitted maximal effect; the source files actives as falling curves though it sought activators and does not explain the sign; nearly all actives have a fitted effect of over 65% in size; many hits overshoot -100%
Target sequence (P80244 whole entry, looked up): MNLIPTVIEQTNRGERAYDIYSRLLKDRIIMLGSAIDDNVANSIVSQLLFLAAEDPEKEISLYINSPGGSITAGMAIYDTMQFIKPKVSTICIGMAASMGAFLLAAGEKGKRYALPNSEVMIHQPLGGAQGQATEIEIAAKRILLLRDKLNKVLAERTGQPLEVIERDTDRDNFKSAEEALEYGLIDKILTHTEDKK
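FRET quenching reversal measured ClpP activation: 10 microg/mL B. subtilis ClpP at pH 8 with the FRET-FV decapeptide, read at 430 nm after 320 nm excitation. The 20-min minus 0-min signal was scaled between DMSO/no-enzyme wells and ADEP (5.8 microM final).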
gsp ag = agonists of gsp mutant (McCune-Albright syndrome). gsp mutant cells, cAMP HTRF, 30 min; control for the full effect not named in the record. Potency, µM (top dose mostly 76.9 µM), for inactives: at the top dose activation (cAMP increase), hits mostly activators. 340,000 tested, 0.13% active. AID 624287; active = well fitted activation curve with a large enough effect; inconclusive = small, poorly fitted or top-dose-only effect, or another doubt; inactive = no such curve, though single readings can be large or run the other way; cell line not stated here;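 further: phosphodiesterase inhibitor Ro 20-1724 added with compounds to block cAMP breakdown; potency means the concentration at half of the fitted maximal effect; nearly all actives have a fitted effect of over 60% in size; about a fifth of the inactives were tested at one dose only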
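Cells stably selected in G418 were plated at 2000/well, grown 16-24 hr, then given compounds in DMSO with the PDE inhibitor […] (300 uM solution added) for 30 min at 37C; cAMP was read by HTRF.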
TRPML1 ag = human mucolipin-1 channel agonism | Q9GZU1 | TRPML1-expressing cells, Ca2+ dye fluorescence, FDSS; host cell line not named in the record; reference of the full effect not given here | activation, % (test concentration not listed) | 410,000 tested, 0.12% active | AID 624414; in the data active = activation above about 50%; inconclusive = about 30% to 50%; inactive = below about 30%; further: 0% is about no effect; the text of the record puts the active cut at 80%
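Agonist activity was taken from a 110 s kinetic Ca2+ dye read on the FDSS after pinning compounds onto TRPML1-DL cells. The cells were seeded at 1,500/well with Tet inducer, incubated about 16 h, then dye-loaded at room temperature.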
Menin-MLL FL inh = displaces fluorescein MLL peptide from human menin. Fluorescence polarization, fluorescein-MLL peptide displacement from menin. FP activity change, % at 61.4 µM. 290,000 tested, under 10 active; inconclusive = falling polarisation curve, or a change in total fluorescence; inactive = total fluorescence flat and polarisation flat or rising; no compound was filed as active; the % refers to the polarisation; negative = inhibition;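 further: % of control where 0% means no effect; inhibitors lower the polarisation; unlabelled MLL peptide was the positive control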
* hit, by the source's call; ? = inconclusive; · = no result given; & = joins results of further samples; [ ] = remark or other dose.

SMILES | TRPML1 inh | gsp antagonist | ClpP mod | gsp ag | TRPML1 ag | Menin-MLL FL inh
O=C(CCc1ccccc1)Nc1ccc2ccccc2n1 | 14.2 | 2.4% | -5.6% | 0.5% | 0.3 | 0.0
Cc1ccc(C(=O)N2c3ccccc3NC(=O)C2C)cc1 (stereo not drawn) | -7.9 | 11.8% | · | 1.9% | -0.7 | 5.5
CCCCN(C)C(=O)c1cn(CC)c2ccc(S(=O)(=O)N(C)C)cc2c1=O | -8.0 | ? | -5.0% | -38.8%[inhibitor] | 4.6 | -2.3
COc1ccc(OC)c(NC(=O)NCCN2CCN(c3ccccc3)CC2)c1 | 5.0 | 12.3% | -0.3% | 19.5% | 0.0 | 1.3
O=C(CSc1ccccc1C(=O)O)c1ccccc1 | 37.0 | -8.6% | 0.6% | -46.1%[inhibitor] | -0.7 | 0.4
CCN(CC)S(=O)(=O)c1ccc(C)c(NC(=O)CNCCN(C(C)C)C(C)C)c1 | -2.7 | 13.8% | 2.2% | -37.8%[inhibitor] | -1.0 | -2.9
Cc1ccc(S(=O)(=O)N2CCC(C(=O)N[C@@H](C)C(=O)NCc3ccccc3)CC2)cc1 | -10.2 | 0.1% | 1.6% | -45.5%[inhibitor] | 0.8 | 0.2
Cc1cccc(C)c1NC(=O)C1(N(Cc2ccco2)C(=O)CC2NC(=O)NC2=O)CCCCC1 (stereo not drawn) | 3.6 | 1.3% | 1.1% | -13.0% | 0.9 | -0.8
CC(C)CCNC(=O)CSc1nc2ccsc2c(=O)n1Cc1ccccc1Cl | -1.4 | · | -5.0% | · | 1.9 | ·
COc1ccccc1CNC(=O)C1(c2ccc(Cl)cc2)CC1 | -27.3 | ? | · | -14.0%[15.4 µM] | -0.3 | 8.2
COc1ccc(Br)c(C(=O)Nc2ccc(F)cc2)c1 | 8.7 | 5.7% | · | 17.2% | 0.4 | 7.1
CN(C)c1ccc(C=NN2C(=O)CSC2=S)c(Cl)c1 | -13.7 | · | 1.4% | 3.7% | 3.1 | ·
CCOc1ccc(NC(=O)CN(C)C(=O)C2CCN(C(=O)Nc3ccccc3)CC2)cc1OCC | -3.8 | 10.9% | 0.1% | 22.5% | -0.2 | ·
CC(=O)c1sc(Nc2cccc3ccccc23)nc1C | 30.8 | 2.9% | 0.1% | ? | 3.2 | ·
O=C(Nc1ccc(-n2cccn2)cc1)C1CCN(Cc2ccsc2)CC1 | 14.5 | 8.6% | -2.6% | -2.3% | 0.9 | ·
CCN(c1ccccc1)S(=O)(=O)c1ccc(C(=O)Oc2ccc(C(C)=O)cc2)cc1 | -18.0 | 5.4% | -1.7% | 5.2% | 1.4 | 0.9
Cc1ccc(Cn2nnc3c(=O)n(Cc4cccc(C)c4)cnc32)cc1 | 22.9 | -14.7% | -4.7% | -23.9% | 2.2 | 0.6
O=C(COC(=O)C1(c2ccc(F)cc2)CCCC1)N1CCN(C(=O)c2ccco2)CC1 | -13.8 | -4.4% | -16.1% | -3.3% | -1.6 | 6.3
Cc1ccc(Cn2nnc3c(=O)[nH]c(C4CCCN(S(=O)(=O)c5ccc(F)cc5)C4)nc32)cc1 (stereo not drawn) | -26.8 | -7.2% | · | 10.9% | 1.1 | 0.8
CC(=O)Nc1ccc(NC(=O)C(Sc2ccccc2)c2ccccc2)cc1 (stereo not drawn) | 23.5 | -3.7% | · | -25.9%[15.4 µM] | 0.7 | 0.0
CCCCNC(=O)c1ccc(CNS(=O)(=O)c2ccc(Br)cc2)cc1 | 9.1 | -3.1% | -0.6% | -10.6% | 3.5 | 0.3
O=C(c1ccc(Oc2ccc([N+](=O)[O-])cc2)cc1)N1CCCCCC1 | 2.8 | ? | · | -14.3% | 1.6 | 1.4
CCNC(=O)NC(=O)C(C)OC(=O)C1CCN(S(=O)(=O)c2ccccc2F)CC1 (stereo not drawn) | -7.8 | 6.7% | -2.1% | -2.0% | 0.6 | -6.0
CC(C)N1CC(O)=C(c2ccccc2)C1=N | 1.6 | -2.1% | 0.4% | 3.0% | -0.1 | 11.8
Cc1cc(NC(=O)COC(=O)[C@@H](NS(=O)(=O)c2ccccc2)C(C)C)no1 | -9.5 | -7.7% | 1.3% | 11.3% | -0.2 | 0.6
O=C1OC(c2ccc(O)cc2)(c2ccc(O)cc2)c2ccccc21 | 1.0 | -3.0% | 1.2% | · | 1.0 | -1.7&-3.5&0.6
O=C(Cn1c(=O)c2cccn2c2ccccc21)NCCCN1CCCCC1 | -9.2 | 19.8% | -9.6% | -38.3%[inhibitor] | 0.5 | ·
C/C=C(/C)C(=O)Nc1cccc(C2=NOC3(C2)C[C@H](C(N)=O)N(C(=O)c2ccccc2)C3)c1 (stereo partly drawn) | 3.7 | 7.4% | -0.9% | · | -0.7 | 0.5
O=C(O)CSc1nc2ccccc2[nH]1 | 29.3 | 7.2% | 2.0% | 29.6% | 2.5 | 2.9
CCOC(=O)CSc1nc2c([nH]c3ccccc32)c(=O)n1-c1ccc(OCC)cc1 | 12.3 | · | -1.8% | · | 0.5 | ·
COc1ccc(S(=O)(=O)N(C)C(C)CCc2ccco2)cc1 (stereo not drawn) | 3.7 | -7.5% | 0.6% | 20.1% | 1.3 | 14.3
O=C1CC(N2CCC(c3nc4ccccc4[nH]3)CC2)C(=O)N1Cc1ccccc1 (stereo not drawn) | 1.4 | -14.9% | -0.5% | -30.2%[inhibitor] | -0.1 | -0.8
CCOC(=O)CSC1=N/C(=C\c2cccnc2)C(=O)N1c1ccc(OC)cc1 | 1.8 | 5.0% | 20.2% | -39.4%[inhibitor] | 0.9 | -0.1
CCOc1ccc(CNC(=O)c2ccc3c(c2)nnn3C2CCCC2)cc1 | 22.8 | · | 1.4% | · | 1.8 | ·
CCOC(=O)c1c(C)[nH]c(C)c1C(=O)CSc1nnc(-c2ccncc2)n1C | 3.3 | -0.6% | -1.3% | -6.7% | 0.2 | 6.1
Cc1cc(F)ccc1S(=O)(=O)Nc1ccccc1C(=O)N1CCCC1 | 0.5 | 7.9% | -0.5% | -75.2%[inhibitor] | -0.1 | ·
Nc1nonc1C(=O)N/N=C/c1cc2c(cc1Br)OCO2 | 9.4 | -7.6% | 0.7% | -3.7% | -0.2 | ·
Cc1ccc(CN2CCN(Cc3ccc4cc(F)ccc4n3)CC2CCO)o1 (stereo not drawn) | -2.8 | 9.4% | · | -19.5%[15.4 µM] | -0.2 | ?
CCC(NC(=O)c1cc(COc2ccc(Cl)cc2OC)on1)c1ccncc1 (stereo not drawn) | -6.6 | 4.2% | -1.8% | -11.7% | 1.1 | ·
COc1cc(NC(=O)c2cccc3c2C(=O)N(C2CCCCC2)C3)cc(OC)c1OC | -9.3&5.2 | 2.9% | -5.6%&-0.1% | 7.4% | 1.5&0.4 | ·
S=c1[nH]nc(-c2ccc(Br)o2)n1Cc1ccccc1 | -3.2 | ? | -3.6% | 5.6% | 1.8 | -4.5
COc1cc(OC)c2ccc(=O)oc2c1C(CCN1CCCC1)c1ccc2c(c1)OCO2 (stereo not drawn) | -5.7&2.9 | 3.7% | -7.5% | · | 0.0&-0.1 | 0.2&18.5
CCOc1ccc(CNC(=O)c2ccc3c(c2)nc2n3CCOC2)cc1 | -2.9 | · | -3.0% | · | -0.2 | ·
Cc1ccc(OCC(=O)NC2CCCC(C)C2C)c([N+](=O)[O-])n1 (stereo not drawn) | -12.7 | 5.9% | 1.1% | -13.2% | 0.2 | ·
O=S1(=O)NC(c2ccccc2)CC(CC2CCCCC2)O1 (stereo not drawn) | -11.1 | -10.0% | -0.5% | · | -1.0 | 1.6
CCS(=O)(=O)Nc1ccc(Cc2ccncc2)cc1 | 9.4 | 10.6% | -0.4% | -5.7% | -0.1 | 1.2
O=C(NCc1ccc2c(c1)OCO2)C(=O)NC1CCCCC1 | -3.2 | 6.6% | 2.5% | -18.2% | 6.9 | 1.5
CCc1nnc(NC(=O)c2ccc3c(c2)C(=O)N(C(C)(C)C)C3=O)s1 | 4.4 | -11.1% | 3.2% | ? | -0.3 | -0.8
Cc1ccc(S(=O)(=O)CC(=O)Nc2sc(C)c(C)c2C(N)=O)cc1 | 8.0 | 2.5% | · | -10.8%[15.4 µM] | 1.4 | ·
CCCCCNS(=O)(=O)c1cc(C)ccc1OC | 1.3 | 2.4% | 1.0% | 5.1% | 2.3 | 0.4

The list goes on:
SMILES | TRPML1 inh | gsp antagonist | ClpP mod | gsp ag | TRPML1 ag | Menin-MLL FL inh
Cc1cc2nc(NC(=O)c3ccc(S(=O)(=O)N4CCOCC4)cc3)sc2cc1C | 1.4 | · | -11.4% | · | 0.2 | ·
ONC(=Nc1ccccc1Cl)c1ccccc1Cl | 25.4 | 0.9% | · | ? | -0.6 | 3.2
COc1ccc(-c2ccc(C(C)=O)cc2)cc1C1C2C=CCC(C)C2C(=O)N1Cc1ccccc1 (stereo not drawn) | -3.9 | · | · | · | 0.9 | -3.6
COc1cc(CNCc2ccccn2)ccc1OCc1ccc(Cl)cc1 | 18.9 | 11.6% | 1.4% | -8.3% | 0.6 | -1.7
Cc1ccc(C(=O)CCC(=O)Nc2cccc(C(F)(F)F)c2)cc1 | -18.0 | 7.3% | 1.4% | -43.2% | -1.4 | -1.2
Cc1ccccc1OCC(=O)Nc1ccncc1 | 32.5 | -4.4% | -2.7% | 10.5%[15.4 µM] | 0.1 | 1.8
CCOC(=O)c1c(C)[nH]c(C)c1C(=O)CSc1ncccn1 | 33.8 | 6.7% | 1.0% | 2.3% | -0.2 | 0.2
C=CCOc1ccccc1CN1CCCN(C)CC1 | · | 12.1% | -1.6% | -27.5% | · | -0.4
COc1cc2c(cc1OC)CN(S(=O)(=O)c1cccc(F)c1)CC2 | -18.1 | 0.0% | -1.0% | ? | 0.9 | 0.0
COc1cccc(NC(=O)CSc2nccn2-c2cccc(OC)c2)c1 | 18.5 | 4.0%[15.4 µM] | -4.2% | -57.7%[inhibitor] | 1.7 | -0.8
Cc1cccc(NC(=O)c2ccc(Cl)c(S(=O)(=O)N3CCCCCC3)c2)n1 | 16.7 | ? | -1.3% | -8.5% | 0.4 | ·
Cc1cccc(NC(=O)c2ccccc2NC(=O)C(C)(C)C)n1 | 6.4 | 7.4% | 0.6% | -5.9% | 4.1 | 3.3
CCCCCN1C2=NCCN2c2ccccc21 | 10.9 | 31.7% | 0.3% | -17.4% | -0.2 | -1.0
CCCCCCN1C[C@@H](O)[C@H](n2cc(C3CC3)nn2)C[C@@H]1c1ccc(OC)cc1 | -6.2 | · | 1.8% | -6.2% | -0.8 | ·
COc1ccc(OC)c(Nc2nc(-c3cccs3)cs2)c1 | 15.1 | -8.3% | -11.5% | -12.6% | -0.5 | 1.4
Cc1ccccc1CSc1nn2c(=O)c(C)nnc2s1 | -21.2 | 8.6% | · | 0.3%[15.4 µM] | -0.7 | -0.1
O=C(CCCn1c(=O)oc2ccccc21)Nc1cccnc1 | -0.3 | 19.4% | 0.6% | -0.2% | -0.2 | 3.6
CNC(=S)N1N=C(c2ccc(C)cc2)CC1c1cc(OC)ccc1OC (stereo not drawn) | 35.2 | -10.4% | · | 2.5%[15.4 µM] | 2.9 | -6.5

This is a random part of the collection; any-hit rate near 2.1%.
